Assay outcomes from PubChem.
TsaE inh: qHTS Assay for Inhibitors of YjeE. tRNA threonylcarbamoyladenosine biosynthesis protein TsaE (Escherichia coli (strain …. purified YjeE, fluorescence polarisation of a bound ADP probe. Potency, µM. 71,000 compounds, 0.05% hits; active = well fitted falling curve; inconclusive = weaker or top-dose-only fall, or a rising curve; inactive = flat or poorly fitted curve;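 further: top concentration of the series not given in the record; excess ADP was the control for the full effect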
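Fluorescence polarization of a BODIPY Texas Red–ADP probe (2 uM) bound to purified YjeE (10 uM) was read after 15 min room-temperature incubation with compounds. Loss of polarization marks inhibitors; ADP serves as titrated control.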
Bst PK mod: Pyruvate Kinase; partly purified Bacillus stearothermophilus pyruvate kinase, luminescence ATP production; ribose 5-phosphate activator present at AC10; Potency, µM; 51,000 compounds, 1.2% hits; in the data active means potency below about 11 µM; inconclusive means mostly about 12 µM to 25 µM; inactive means weaker than that;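 the screen sought inhibitors and activators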;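 further: potency means the concentration at half of the fitted maximal effect; scaled between full activation by ribose 5 phosphate and full inhibition by luteolin; about four in five hits inhibit and the cells do not say which; series up to 57 µM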
The depositor's hits bear a star; i = inactive; ? = inconclusive; . = not tested or not shown. A portion of the library; count on the stated rates, not on these rows.

Compound,TsaE inh,Bst PK mod
Clc1ccc2c(c1)CNc1c(ncnc1N1CCOCC1)O2,i,.
CCOc1ccc(OCc2ccc(C(=O)OCc3ccccn3)o2)cc1,i,>57
CCCc1cc(=O)[nH]c(NCc2ccc(Cl)cc2)n1,i,>57
CCOc1ccccc1-c1cc(-c2ccc(OC)cc2)nc2c1c(=O)n(C)c(=O)n2C,i,>57
CC(=O)Nc1nc2n(n1)C(c1ccc(Cl)cc1)C=C(C)N2 (stereo not drawn),i,.
CCC(=O)N1CCN=C1SCc1ccccc1Cl,i,.
CCC(=O)Oc1oc(-c2ccccc2)nc1C=Nc1ccccc1OC,.,>26
COc1ccc(OC)c2c(N)c(C#N)c(C(F)(F)C(F)(F)F)nc12,.,>26
Cn1cnc([N+](=O)[O-])c1Sc1nc(N)nc2c1ncn2[C@H]1C[C@H](O)[C@@H](CO)O1,i,.
Fc1ccc(CN2CCSCC2)cc1Br,i,>57
COc1ccc(C2=NOC(C(=O)Nc3ccc(C(C)=O)cc3)C2)cc1OC (stereo not drawn),i,>57
Nc1nnc(COc2ccc(Br)cc2Br)s1,i,.
COc1cccc(C2C(C(=O)c3cccs3)=C(O)C(=O)N2CCN(C)C)c1OC (stereo not drawn),i,>57
c1ccc(OCCn2cnc3ccccc32)cc1,i,>57
c1ccc(-c2noc(-c3cccnc3)n2)nc1,i,.
O=C(Nc1c[nH]c(=O)[nH]c1=O)Oc1ccccc1,i,.
Cc1nc(CNS(=O)(=O)c2ccc3c(c2)CCCC3)cs1,i,.
CC(C)(C)OC(=O)N1CCC[C@H]1C(=O)NCC1CCC(C(=O)O)CC1 (stereo partly drawn),i,>57
O=S(=O)(c1cccs1)n1nnc2ccccc21,i,.
COc1ccc(CNC(=O)C2CC=CCC2C(=O)O)cc1OC (stereo not drawn),i,>57
CCOC(=O)CNC(=O)CSc1nnnn1-c1cc(C)ccc1C,i,i
CC(=O)[C@H](C(=N)C#N)C(=O)Nc1ccccc1,i,.
CCOC(=O)N1CCC(NC(=O)c2cccnc2SC)CC1,i,>57
c1ccc(-c2csc3ncn4cnnc4c23)cc1,i,.
COc1cccc(N2C(=O)C3CCCN3C2c2ccc(F)cc2)c1 (stereo not drawn),i,>57
COc1cccc(-n2nnnc2SCC(=O)NCc2ccco2)c1,i,i
CCCCNc1cc(NC(C)=O)cc2cc(OC)c(OC)cc12,i,.
COC(=O)c1cc(Oc2ccc(C(=O)OC)cc2N)cc(C(=O)OC)c1,i,>57
CCc1nc(C)cn1S(=O)(=O)c1cc(Br)ccc1OC,i,>57
CCOC(=O)C1CCCN(c2ncnc3c2cnn3-c2ccc(Cl)cc2)C1 (stereo not drawn),i,.
CC(=O)c1c(N=CN(C)C)nc(C)nc1-c1ccccc1,i,>57
Cc1ccc2cc3cc(C(=O)N4CCCCCC4)oc3nc2c1,i,?
Cc1ccc(C)c(N2CCN(C(=O)c3cc(S(=O)(=O)N4CCOCC4)ccc3F)CC2)c1,i,>57
O=C(Oc1ccccc1N1C(=O)CCC1=O)c1ccco1,.,>26
O=C(O)CCCNc1cc(N2CCC3(CC2)OCCO3)c2noc3c2c1C(=O)c1ccccc1-3,i,i
Nc1nc2n(n1)C(c1ccc(F)cc1)CC(c1ccc(F)cc1)N2 (stereo not drawn),.,>26
Cc1sc2nc3n(c(=O)c2c1C)NC(=O)CC3,i,>57
COc1ccc(-n2nc(C(=O)Nc3ccc4c(c3)OCO4)c3ccccc3c2=O)c(OC)c1,i,>57
NC(=Nc1ccccc1)Nc1ccccc1,i,.
Cc1ccc(-c2nnn(CC(=O)N3CCCCC3)n2)c(-n2cnnn2)c1,i,>57
C/C(=N\O)C(=O)C(CN1CCCCC1)CN1CCCCC1,i,.
Cc1noc(C)c1COC(=O)c1cc(F)c(F)cc1Cl,i,?
O=C(c1cnn2cccnc12)N1CCN(Cc2ccc3c(c2)OCO3)CC1,i,>57
CN(C)c1ccc(C2N(c3ccc(F)cc3)C(=O)C3CCCN32)cc1 (stereo not drawn),i,.
CC(=O)Nc1nc(-c2ccccc2)nc(-c2ccccc2OC(C)=O)n1,i,.
COC(=O)c1[nH]c2ccccc2c1NC(=O)CNC1CCCCC1,i,>57
C=CCN1C(=O)C2C(C(=O)NC3CCCCC3)C3C=CC2(O3)C1C(=O)NC1CCCC1 (stereo not drawn),i,>57
CN(Cc1ccco1)c1ncncc1-c1cccnc1,i,.
CC(C)OCCCNC(=O)CCc1nc(-c2ccccc2)no1,i,>57
Cc1ccc2cc(C(c3nnnn3C(C)(C)C)N3CCCCCC3)c(=O)[nH]c2c1 (stereo not drawn),i,>57
Cc1cc(C)n(-c2cccc(Cl)c2)c(=O)c1C#N,i,>57
CN(C)CCOc1nc(-c2ccccc2)nc2c1oc1ccccc12,i,11*
O=C1CCC(=O)N1c1ccc(CSc2nc3ccccc3[nH]2)cc1,i,.
FC(F)C(F)(F)C1=CC(c2cccs2)=NCCN1,i,>57
CC(=O)N1CCc2cc(S(=O)(=O)NC(C(=O)NC3CCCc4ccccc43)C(C)C)ccc21 (stereo not drawn),i,>57
O=C(CC1CCCCC1)N1CCN(c2ccccn2)CC1,i,>57
O=C(CSc1ccccn1)N1CCN(c2ccccc2)CC1,i,>57
O=C(Cn1cnc2ccccc21)OCC(=O)N1CCc2ccccc2C1,i,>57
CCN(CC)S(=O)(=O)c1ccc(NC(=O)COC(=O)c2ccc(Br)o2)cc1,i,>57
c1ccc(-c2nc3nc4ccccc4nc3n2Cc2ccco2)cc1,i,>57

(next part)
Compound,TsaE inh,Bst PK mod
CCN(CC)S(=O)(=O)c1ccc(C(=O)NCc2n[nH]c(=S)n2Cc2ccccc2)cc1,i,>57
CCOC(=O)c1c(N)sc(C(O)(C(F)(F)F)C(F)(F)F)c1-c1ccc(OC)cc1OC,i,>57
CCOc1ccccc1-c1nnc(SCC(=O)NC2CC3CCC2C3)n1CC (stereo not drawn),i,>57
Cc1cc2oc(=O)cc(C)c2c(=O)o1,i,>57
Cc1cccc(CCN(Cc2cc3cccc(C)c3[nH]c2=O)C(=O)N2CCOCC2)c1,i,>57
Cn1c(=O)c2c(ncn2CC(N)=O)n(C)c1=O,i,>57
Cn1nnc(NC(=O)c2ccccc2F)n1,i,.
O=C(c1ccco1)N1CCN(c2ncnc3c2[nH]c2ccc(Br)cc23)CC1,i,.
COc1ccc(C(CNC(=O)Cn2[nH]c(=O)c3ccccc3c2=O)N2CCCC2)cc1 (stereo not drawn),i,>57
CCS(=O)(=O)n1nc(-c2ccccc2)nc1SCc1ccccc1,i,.
CC1(C)Cc2c(sc3nn[nH]c(=O)c23)CO1,i,>57
COc1ccc(-c2nc3cnc(OC)nc3n(CCC#N)c2=O)cc1,i,.
CCOC(=O)CSc1nnc(-c2ccccc2NC(=O)c2ccccc2)o1,i,>57
CC(C)(C)c1ccc(S(=O)(=O)N2CCCC2C(=O)NC2=NCCS2)cc1 (stereo not drawn),i,>57
CCCC(=O)CN1C(=O)C2(OCCO2)c2ccccc21,i,>57
COc1ccccc1C(=O)NCCC(=O)N1CC(=O)Nc2ccccc21,i,>57
O=C(CSc1nnc(C2CC2)n1Cc1ccccc1)c1cc2ccccc2o1,i,>57
O=C(COc1c(F)c(F)c(C(F)(F)F)c(F)c1F)Nc1ccc(N2CCOCC2)c(Cl)c1,i,.
O=C(Nc1ccc(Br)c2cccnc12)c1ccc(Cn2cc(Cl)cn2)o1,i,>57
O=C1C(=O)c2ccccc2C(O)=C1C1CCC(c2ccc(Cl)cc2)CC1 (stereo not drawn),i,.
COCCNC(=O)COc1cccc(Oc2ccccc2)c1,i,>57
CC(C)Cc1nc2oc3c(NCC4CCCO4)ncnc3c2c2c1CCC2 (stereo not drawn),i,>57
Cc1c(N=Cc2cc3c(cc2Cl)OCO3)c(=O)n(-c2ccccc2)n1C,i,.
Cc1cc(C)c2c(=O)n(CC(=O)N3CCC(N4CCCCC4)CC3)sc2n1,i,.
CCC1(C)Cc2c(sc3nc4n(c(=O)c23)CCS4)CO1 (stereo not drawn),.,>26
O=C(CN1CC(c2ccccc2)CC1=O)OCc1ccccc1F (stereo not drawn),i,>57
CCN(CC)CCN1C(=O)C(=O)/C(=C(/O)c2c(C)[nH]c(C(=O)OC)c2C)C1c1ccc(OC)cc1 (stereo not drawn),.,>26
O=C(NCc1ccco1)C(c1ccc(F)cc1)N(CC1CCCO1)C(=O)Cn1nnc2ccccc21 (stereo not drawn),i,>57
Oc1ccc(-c2nc(-c3ccc(F)cc3)c(-c3ccncc3)[nH]2)cc1,i,.
Nc1cc(N)nc(SCCN2CCCCC2)n1,i,>57

Overlap with the part before: 2 entries, then new ones.
Values in the order – TsaE inh | Bst PK mod
Oc1ccc(-c2nc(-c3ccc(F)cc3)c(-c3ccncc3)[nH]2)cc1
    i | .
Nc1cc(N)nc(SCCN2CCCCC2)n1
    i | >57
CC(C)[C@H](NC(=O)[C@@H]1CSCN1C(=O)OC(C)(C)C)C(=O)NCC1CCC(C(=O)O)CC1 (stereo partly drawn)
    i | >57
COC(=O)[C@H](CCSC)NC(=O)Nc1ccc(C)c(C)c1
    i | >57
O=c1c2ccccc2nc(SCc2ccccc2)n1Cc1ccco1
    i | >57
Cc1ccccc1N(C(=O)Cn1nnc2ccccc21)C(C(=O)NCc1ccco1)c1ccncc1 (stereo not drawn)
    i | >57
Cc1cc(NC(=O)COC(=O)COc2cccc3c2OC(C)(C)C3)no1
    i | >57
CC(=O)c1cccc(S(=O)(=O)N(CCCO)Cc2cc3ccc(C)cc3[nH]c2=O)c1
    i | >57
O=C(O)c1ccccc1SC1CC(=O)N(C2CCCCC2)C1=O (stereo not drawn)
    i | .
O=C(COC(=O)c1ccc(Br)o1)NCc1ccco1
    i | >57
O=C(C1CCCN1C(=O)c1cccs1)N1CCN(Cc2ccc3c(c2)OCO3)CC1 (stereo not drawn)
    i | >57
O=C(NCC1CCCO1)c1ccccc1-c1nc(-c2ccc(Cl)cc2)no1 (stereo not drawn)
    i | 10*
Cc1ccccc1NC(=O)c1ccc(NC(=O)c2ccco2)cc1
    i | >11
CC1=C(C(=O)N2CCOCC2)C(c2cccs2)NC(=O)N1 (stereo not drawn)
    i | .
O=C(NCc1cccs1)C1CCCN(S(=O)(=O)c2ccc(Br)s2)C1 (stereo not drawn)
    i | >57
N#Cc1cccc(NC(=O)N2CC3(CCN(C(=O)c4ccco4)CC3)C2)c1
    i | .
CCCCC(c1nnnn1C1CCCC1)N1CCN(C2CCCC2)CC1 (stereo not drawn)
    i | >57

4 of these compounds, set out differently.
SMILES: O=C(C1CCCN1C(=O)c1cccs1)N1CCN(Cc2ccc3c(c2)OCO3)CC1 (stereo not drawn)
  TsaE inh: i
  Bst PK mod: >57

SMILES: O=C(NCC1CCCO1)c1ccccc1-c1nc(-c2ccc(Cl)cc2)no1 (stereo not drawn)
  TsaE inh: i
  Bst PK mod: 10*

SMILES: Cc1ccccc1NC(=O)c1ccc(NC(=O)c2ccco2)cc1
  TsaE inh: i
  Bst PK mod: >11

SMILES: CC1=C(C(=O)N2CCOCC2)C(c2cccs2)NC(=O)N1 (stereo not drawn)
  TsaE inh: i
  Bst PK mod: .

Given field by field: 2 of the compounds above
COc1ccc(C2=NOC(C(=O)Nc3ccc(C(C)=O)cc3)C2)cc1OC (stereo not drawn)
  TsaE inh: i
  Bst PK mod: >57
CCOC(=O)CSc1nnc(-c2ccccc2NC(=O)c2ccccc2)o1
  TsaE inh: i
  Bst PK mod: >57

Other results follow.
Values in the order – TsaE inh | Bst PK mod
O=C(NCCc1ccc(S(=O)(=O)N2CCCC2)cc1)c1cccs1
    i | .
CCn1nnc(NC(=O)c2cccnc2)n1
    i | >57
COC(=O)c1ccc(OCC(O)CN(CC(C)C)CC(C)C)cc1 (stereo not drawn)
    i | .
O=C(CSc1ncn(-c2ccccc2)n1)Nc1ccc2c(c1)OCCO2
    i | >57
C=CCNC(=O)CCCCC(=O)NCC=C
    i | >57
CCN(CC)CCN(CC)Cc1ccccc1Br
    i | .
CCOc1ccc(Nc2oc(Cc3ccccc3)nc2C#N)cc1
    i | >57
NCCCCCCCCCCN
    i | .
COC(=O)c1ccc(C(NC(=O)OCc2ccccc2)/C(C)=C/[C@@H](C)C(=O)NCc2nc3ccccc3s2)cc1 (stereo partly drawn)
    i | .
CC1(C)CC(=O)C(C=NCCC2=CCCCC2)=C(O)C1
    i | .
O=C(O)CCC(=O)Nc1ccc(S(=O)(=O)N2CCCC2)cc1
    i | >57
CC(=O)OCC(=O)[C@@]1(O)CC[C@@H]2[C@@H]3CCC4=CC(=O)CC[C@@]4(C)[C@H]3C(=O)C[C@]21C
    i | .
N#C[C@@H](Cc1ccc(O)c(O)c1)C(=O)N1CCc2ccccc21
    i | .
CCC(C)(C)n1nnnc1CN(Cc1cc2cc(OC)ccc2[nH]c1=O)C1CCCC1
    i | >57
CCOc1ccc2[nH]c(=O)c(CN(CCO)C(=O)c3ccccc3F)cc2c1
    i | >57
CNC(=O)NC(=O)CSc1nc2cc(C(=O)OC)ccc2c(=O)n1-c1ccccc1
    i | >57
